# High-throughput results as filed in PubChem BioAssay.
# Bfl-1 A1 inh: inhibitors of the anti-apoptotic protein A1, read as caspase activation; MEF A1-2A-BIM cells, Caspase-Glo 3/7 luminescence, 3 h; percent of clofoctol response, vehicle zero; caspase activation, % (test concentration not listed); AID 2462; actives 0.066% (n = 330,000);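 active = over half of replicate activation scores above 10%, or exactly half above 10 with the replicate mean above 10; inconclusive = replicate mean below 10 yet half the replicates above 10; inactive = over half of replicates below 10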;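 also: wells of about 30 µL received 50 nL stock; many hits fall short of the cut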
# UCH37 inh: human UCH37 deubiquitinating enzyme inhibition | purified proteasome/UCH37, Ub-AMC cleavage fluorescence | AID 588478 | Q9Y5K5 | actives 0.33% (n = 330,000) | inhibition, % (no concentration beside the values);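 active = mean of two replicates above 20%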;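 also: 0% = compound-free wells with enzyme and 100% = wells lacking proteasome; stock transfer was 100 nL into about 20 µL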
# Target sequence (Q9Y5K5 whole entry, looked up): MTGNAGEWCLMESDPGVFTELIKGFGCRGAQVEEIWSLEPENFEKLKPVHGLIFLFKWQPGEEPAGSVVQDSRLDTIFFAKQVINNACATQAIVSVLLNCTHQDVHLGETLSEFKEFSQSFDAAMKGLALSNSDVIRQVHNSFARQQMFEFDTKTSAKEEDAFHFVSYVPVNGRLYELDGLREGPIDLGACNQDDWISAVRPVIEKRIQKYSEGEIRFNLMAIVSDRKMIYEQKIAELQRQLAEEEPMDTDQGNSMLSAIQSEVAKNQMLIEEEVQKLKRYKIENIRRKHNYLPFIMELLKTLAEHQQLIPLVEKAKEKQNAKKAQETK
#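 Material: human UCH37 enzyme supplied as purified proteasome complex. Measure: % inhibition of Ub-AMC cleavage fluorescence. Medium: pH 7.4 Tris-HCl (50 mM) with ovalbumin, ATP-MgCl2, DTT. Times: 30 min preincubation with enzyme, 25 min cleavage at room temperature. Detection: AMC fluorescence intensity at 355/460 nm.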
# LANA-H2B inh: blocks KSHV LANA binding to histone H2A/H2B. Q9QR71. cell-free LANA-H2A/H2B peptide, fluorescence polarization. inhibition, % (test concentration not listed). actives 0.6% (n = 320,000). AID 2629; in the data active = inhibition mostly above about 10%, no sharp cut-off; inactive = mostly below about 6.7%;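 also: stock transfer was 7.5 nL into about 10 µL; 0% = median of vehicle wells and 100% = median of positive control wells; one replicate is shown; the record names a cut of 25% in any replicate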
# E coli growth: blocks Escherichia coli growth; AID 1053175; actives 0.21% (n = 330,000); OD600 absorbance (concentration not given with the values); OD600, 23 h; stronger effect = lower value;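 active = OD600 absorbance below the run mean of sample wells minus 3.6 SD, in any replicate, cut at about 0.56 in these data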;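 also: stock transfer was 300 nL into about 60 µL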
# B2AR ag: activates human beta-2 adrenergic receptor causing internalization. AID 504454. P07550. response, % (test concentration not listed). actives 0.43% (n = 340,000). Am2.2-beta2AR cells, FAP receptor internalization, flow cytometry; reference of the scale not given here;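 active = response above a set limit, near 3 SD of response in nonfluorescent compounds, cut at about 42% in these data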;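 also: stock transfer was 100 nL into about 11 µL; a reference agonist was the positive control; negative values mostly stem from fluorescent compounds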
# Target sequence (P07550 whole entry, looked up): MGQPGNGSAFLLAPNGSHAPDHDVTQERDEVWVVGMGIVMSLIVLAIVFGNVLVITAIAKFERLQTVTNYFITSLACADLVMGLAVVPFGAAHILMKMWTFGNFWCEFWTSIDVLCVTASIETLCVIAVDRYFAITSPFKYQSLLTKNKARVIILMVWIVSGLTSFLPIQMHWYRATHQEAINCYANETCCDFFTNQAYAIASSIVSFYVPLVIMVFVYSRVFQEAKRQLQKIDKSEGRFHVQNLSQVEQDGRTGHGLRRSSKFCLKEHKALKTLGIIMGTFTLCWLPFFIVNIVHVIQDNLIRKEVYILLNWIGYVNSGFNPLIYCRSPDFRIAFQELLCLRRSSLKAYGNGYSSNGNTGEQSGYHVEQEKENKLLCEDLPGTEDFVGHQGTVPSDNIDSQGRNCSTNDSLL
# Vif TR-FRET: HIV-1 Vif–A3G interaction blockers – biochemical, TR-FRET, GST-Vif 1-94, biotin-A3G peptide, dose response retest, primary screen (AID 1117319); inhibition, %; hits with a dose series show IC50 in µM; TR-FRET GST-Vif / biotin-A3G peptide binding; higher % means a stronger effect; test concentration not given here; strong numbers were not always called active; actives 0.57% (n = 260,000);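 active = above the screen mean plus three standard deviations and confirmed in dose response; inconclusive = results disagree or hit not tested in dose response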;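 also: Vif residues 1-94 fused to GST binding biotinylated APOBEC3G peptide 110-148; 0% = full assay without inhibitor and 100% = GST in place of GST-Vif; retest series ran down from 100 µM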
# HNF4A DNA FP: change in binding of human HNF4 alpha to DNA; actives 0.3% (n = 360,000); AID 1224865; activity change, % at 10 µM; HNF4a-FITC DNA binding, fluorescence polarization, 1 h; P41235; in the data active = activity change above about 30%, passing the limit was not always enough;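 also: controls were the assay level and a saturating level of protein; the project sought stronger binding though the title names inhibitors; some compounds called inactive have numbers as strong as hits; positive values seem to mean higher polarization but the record does not say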
# The depositor's hits bear a star; ? = inconclusive; . = not tested or not shown; & = joins results of further samples; ! = not active in a repeat. Only part of the results is shown, so the mix of outcomes need not match the whole.
SMILES,Bfl-1 A1 inh,UCH37 inh,LANA-H2B inh,E coli growth,B2AR ag,Vif TR-FRET,HNF4A DNA FP
CCCNc1oc(-c2cccc3ccccc23)nc1C#N,-0.4,-343,-2.2,0.75,3,4%,-2.0
CC(C)NC(=O)Cn1cc(C(=O)c2ccccc2F)c2ccccc21,-0.2,1.0,-7.6,0.7,1,-7%,-0.7
C[C@](N)(CCP(=O)(O)O)C(=O)O,0.9,3.2,-2.1,0.71,0,.,-0.6
O=C(c1cc2cc(Br)ccc2[nH]1)N1CCC2(CC1)OCCO2,0.1,6.2,-1.4,0.71,-1,.,5.8
O=C(NCc1ccccc1)c1cccn(Cc2cccc(Cl)c2)c1=O,0.9,-20,-1.4,0.63,7,7%,-3.0
Nc1ccc(N=Nc2ccccc2)cc1,-1.2,12,-1.3,0.69,-1,?,-0.3
O=C1CN=C(c2cc([N+](=O)[O-])ccc2Cl)c2cc([N+](=O)[O-])ccc2N1,-0.3,8.4,-0.8,0.66,1,.,1.1
COc1ccc(C(=O)CN2CCCCC2)cc1,0.1,3.9,-4.6,0.64,-1,?,0.2
Cc1ccc(-n2c(C)nc3cc(Cl)ccc3c2=O)nc1,1.3,0.9,-2.6,0.65,-2,9%,-0.6
C=CCn1c(O)c(/C(C)=N/NC(=S)Nc2ccccc2)c(=O)[nH]c1=O,-3.8,6.4,-7.7,0.69,-14,.,2.0
CC(=O)Nc1cc(C(=O)N2CCC3(CC2)OCCO3)ccc1Sc1ccc(F)cc1,0.3,0.6,29*,0.73,-4,-7%,-1.4
C=CCn1c(O)c(C(C)=NCCCO)c(=O)[nH]c1=O,0.3,-2.2,0.7,0.75,4,5%,-1.1
C#CCOCOCC#CCN(CC)CC,0.4,3.8,3.0,0.74,-5,8%,-0.4
O=C(Nc1ccccc1)N1CC2CC(C1)c1cccc(=O)n1C2 (centres undefined),-0.1,2.3,4.5,0.7,-6,19%,2.8
N#CCCn1cc(C(=O)Nc2ccc(F)cc2)c(-c2ccc([N+](=O)[O-])cc2)n1,-0.7,1.3,-0.7,0.64,-12,-8%,5.5
CC(=O)OC1(c2ccccc2)CCN(C2CCCCC2)CC1C (centres undefined),-0.2,-0.1,5.2,0.72,1,-6%,-3.4
CN(C)c1ccc(C=C2C(=O)NC(=O)NC2=O)cc1[N+](=O)[O-],-0.1,7.6,3.9,0.7,4,?,-1.0
CC(=NCCCO)c1c(O)n(Cc2ccccc2)c(=O)[nH]c1=O,0.5,-1.9,-0.6,0.71,-3,-3%,-1.6
CN1[C@H]2CC[C@@H]1C(C(=O)N1CCOCC1)=C(O)C2,-0.3,-1.0,-1.6,.,-3,.,-0.8
COC[C@H]1OC(=O)c2coc3c2[C@@]1(C)C1=C(C3=O)[C@@H]2CCC(=O)[C@@]2(C)C[C@H]1OC(C)=O,.,.,.,.,9,12%,14
O=C(Nc1ccncc1)c1cccn(Cc2ccccc2)c1=O,1.0,-13,1.2,0.69,-3,-6%,0.6
O=C(CN1CCCCC1)c1cccc(Br)c1,0.2,0.7,0.7,0.62,2,16%,-1.3
Cc1ccc(NC2=NCCCS2)cc1Cl,-0.4,3.2,1.6,0.7,-2,.,-1.4
CC1(C)C(=O)CCC2C1=CCC1C2CCC2(C)C(O)CCC12 (centres undefined),.,4.2,.,0.67,-1,-2%,1.4

# For convenience, some entries already given:
SMILES,Bfl-1 A1 inh,UCH37 inh,LANA-H2B inh,E coli growth,B2AR ag,Vif TR-FRET,HNF4A DNA FP
O=C(Nc1ccncc1)c1cccn(Cc2ccccc2)c1=O,1.0,-13,1.2,0.69,-3,-6%,0.6
O=C(CN1CCCCC1)c1cccc(Br)c1,0.2,0.7,0.7,0.62,2,16%,-1.3
Cc1ccc(NC2=NCCCS2)cc1Cl,-0.4,3.2,1.6,0.7,-2,.,-1.4
CC1(C)C(=O)CCC2C1=CCC1C2CCC2(C)C(O)CCC12 (centres undefined),.,4.2,.,0.67,-1,-2%,1.4

# Next section.
SMILES,Bfl-1 A1 inh,UCH37 inh,LANA-H2B inh,E coli growth,B2AR ag,Vif TR-FRET,HNF4A DNA FP
CCN(CC)CCC(=O)O[C@H]1CC[C@]2(C)C3CC[C@@]4(C)C(CC[C@]4(C)O)C3CC[C@H]2C1 (some centres undefined),-0.4,-0.1,4.5,0.61,-10,-7%,2.2
COc1cccc(-n2c(/C=C/c3ccc(O)c(O)c3)nc3ccccc3c2=O)c1,-0.2,-24,1.3,0.71,-23,11µM*,57*
O=C(O)C1C2CCC(O2)C1C(=O)Nc1cccc(Br)c1 (centres undefined),0.2,0.1,-4.6,0.69,1,.,-3.0
CCOP(=O)(Cc1ccccc1)OCC,1.9,-0.5,-1.5,0.66,6,.,-1.1
C[C@H]1CCC[C@@H](O)CCC/C=C/c2cc(O)cc(O)c2C(=O)O1,0.8,.,-4.7,.,4,0%&3%,1.4
CCN(CC)P(=O)(/C=C(\Cl)c1ccccc1)/C=C(\Cl)c1ccccc1,-0.9,0.5,-0.7,0.73,-11,-9%,5.1
O=C(C(=O)N1CCOCC1)c1cn(Cc2c(F)cccc2Cl)c2ccccc12,1.2,1.4,2.5,0.69,8,-5%,-0.5
c1cncc(CNC2=NCCC2)c1,0.7,0.8,1.2,0.67,-5,-6%,0.5
NC(C(=O)O)c1cc(=O)[nH]o1 (centres undefined),0.5,1.9,-2.0,0.68,1,.,-2.6
C(#CCN1CCOCC1)COCC#Cc1ccccc1,-1.7,4.1,1.2,0.66,2,3%,-0.2
COc1ccc(N(CC(=O)NCc2ccc3c(c2)OCO3)S(C)(=O)=O)cc1OC,0.0,1.2,3.6,0.69,6,-3%,-3.4
CC[C@]12CC[C@H](O)CC1=CCC1C2CC[C@]2(C)C(=O)CCC12 (some centres undefined),-0.5,1.9,-0.4,0.66,.,.,-0.5
Cn1c(O)c(C(=O)c2ccccc2Cl)c(=O)n(C)c1=O,-0.6,1.8,-7.8,0.68,8,29%,0.4
OC(c1ccc(F)cc1)(c1ccc(F)cc1)[C@@H]1CCCN1,-0.5,1.4,-2.4,.,3,-3%,0.3
COC(=O)[C@@]1(Cc2ccc(F)cc2)[C@H]2c3cc(C(=O)N(C)C)[nH]c3C[C@H]2CN1C(=O)c1ccccc1,1.8,1.5,-3.3,.,-22,3%,3.3
CCN(CC)C(=O)c1ccc2c(c1)C1C(Cl)C(Sc3ccccc3[N+](=O)[O-])CC1C(C(=O)O)N2 (centres undefined),1.1,6.8,4.3,0.85,0,13µM*,-37
CCCCN1C(=O)/C(=C\c2ccco2)C(=O)N(CCc2ccccc2)C1=O,0.2,2.8,0.3,0.68,6,-5%,3.0
CCCCn1c(O)c(/C=C2/C=CC=N2)c(=O)[nH]c1=O,0.5,.,1.7,.,3,4%,0.5
COc1cc2c3c(c1OC)Oc1ccc(cc1)C[C@H]1c4c(cc(OC)c(OC)c4Oc4ccc(cc4)C[C@@H]3N(C)CC2)CCN1C,.,1.3,.,.,45*,.,5.6
CCOC(=O)c1cc(C)n(CCc2cnc[nH]2)c1C,0.5,5.7,-3.1,0.79,5,26%,2.0
O=C1CCCN1CC#CCN1CCCC1,0.5,0.8,0.3,0.69,-8,.,5.7
O=C1NC(=S)NC(=O)C1C/C=C/c1ccccc1,0.6,3.6,4.1,0.71,0,1%,0.5
CCCCC(=O)N/N=C/c1c(O)n(CCc2ccccc2)c(=O)[nH]c1=O,0.5,4.8,6.2,0.66,3,.,1.7
Cc1c(OC(=O)N(C)C)ccc2c1O/C(=C\c1ccco1)C2=O,-4.7,-5.2,-3.2,0.7,4,12%,1.9
COc1ccc(CN2CCN(C(=O)COc3ccc4ccccc4c3)CC2)c(OC)c1,-0.8,0.8,2.7,0.62,0,9%,6.0
CC1(C)C(C(=O)NCc2ccco2)C1(C)C,-0.7,1.8,-3.1,0.73,-5,3%,-4.3
O=C(/C=C/c1ccc2c(c1)OCO2)c1c(O)n(CCc2ccccc2)c(=O)[nH]c1=O,0.2,-11,9.8,0.65,-1,2%,-0.1
COc1cc(C(C)=O)ccc1OC(=O)N(C)c1ccccc1,1.6,2.1,-0.5,0.66,4,.,-2.8
NC(=S)c1cn(C2OC(CO)C(O)C2O)c2ncnc(N)c12 (centres undefined),3.7,-3.9,-2.0,0.6,9,0%,0.2
CCCCn1c(O)c(C(C)=NCc2cc(OC)cc(OC)c2)c(=O)[nH]c1=O,0.2,5.7,-3.6,0.68,-1,18%,9.5
Cc1ccc(C=C2C(Cl)=C(Cl)C(Cl)=C2Cl)cc1,3.5,7.3,2.2,0.7,.,2.1µM*,.
CC[C@H](C)[C@@H](C(=O)N1CCCC1c1nccs1)N(C)C(=O)[C@H](CC(C)C)N(C)C(=O)[C@H](Cc1ccc(OC)cc1)N(C)C(=O)/C=C(\C)OC (some centres undefined),.,0.6,.,0.7,7,.,4.3
CCN(CC)N=O,0.0,2.3,3.0,0.67,-2,.,1.3
C=C(C=O)CC1CC(O)[C@]2(C)OC3C[C@@H]4OC5C[C@]6(C)O[C@]7(C)CCC8OC9C[C@]%10(C)OC(/C(C)=C\CO)C(O)CC%10OC9CC(C)C8OC7CC6O[C@]5(C)C/C=C\C4OC3CC2O1 (some centres undefined),0.2,4.5,-0.8,.,0,.,1.2
CC1CCN2c3nc4ccccn4c(=O)c3CC3(C(=O)N(C)C(=O)N(C)C3=O)C2C1 (centres undefined),-0.1,-18,4.4,0.66,-5,?,-2.4
COc1ccc(C(=O)C2CCCN(Cc3cnc(C)s3)C2)c(OC)c1 (centres undefined),0.4,1.2,8.8,0.67,9,-4%,6.2
O=[N+]([O-])c1cc2c(cc1CNCCc1ccc3c(c1)OCO3)OCO2,0.3,.,-0.7,.,-6,.,-3.5
COC(=O)C1=C(c2ccc(Cl)c(C(F)(F)F)c2)C[C@@H]2CC[C@H]1N2C(=O)N1CCC(O)(c2ccc(Cl)cc2)CC1,-0.5,2.6,-4.1,.,10,.,-1.5
COc1cccc(C(=O)C2CN(C)CC2c2ccc(Cl)cc2)c1 (centres undefined),0.0,1.2,-4.2,0.64,-1,0%,-0.8
Cn1cc(C(=O)OCC(=O)Nc2ccccc2Cl)c2ccccc21,.,2.6,.,0.71,0,-1%,1.7
CCN(C(=O)COC(=O)c1cn(C)c2ccccc12)c1ccc(F)cc1,1.9,0.0,-0.3,0.7,-3,-4%,-4.8
CCOP(=O)(/C=C(\Cl)c1ccccc1)C(O)c1ccc(F)cc1 (centres undefined),-0.3,4.3,2.7,0.68,-1,-4%,-2.1
CC(C)CCn1c(=O)c(C(=O)NCc2ccc3c(c2)OCO3)c(O)c2ccccc21,0.4,0.2,5.7,0.68,0,3%,-0.9
CCOCCCNC(=O)CN1C2CCC1CC(O)(c1ccc(OC)cc1)C2 (centres undefined),-0.8,3.8,3.4,0.68,-5,-2%,-3.1
Nc1c(C(=O)NCc2ccco2)c2nc3ccccc3nc2n1CCN1CCOCC1,-1.1,-403,2.1,0.71,-1,14%,4.4
C[C@]12CCC(=O)C=C1CC[C@@H]1[C@@H]2CC[C@]2(C)C(=O)CC[C@@H]12,0.5,0.8,16*!,.,-4,.,-3.0
CCC1([N+](=O)[O-])COP(=O)(NCc2cccnc2)OC1 (centres undefined),.,.,.,.,3,-6%,0.9
CN(c1ccccc1)P(=O)(N1CC1)N1CC1,.,-0.2,.,0.69,-4,-5%,0.1
O=[N+]([O-])c1ccc(N2CCCNCC2)c2ncccc12,0.2,.,-1.2,.,-4,1%,-1.1
